NPYLR7 agonist = mosquito NPYLR7 agonism | HEK293T NPYLR7/Galpha15, GCaMP6s calcium fluorescence | 270,000 compounds, 0.15% hits | activation, % at 10 µM; in the data active = activation above about 40%;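 note: 0% = vehicle and 100% = reference agonist at the receptor; some compounds past the cut are filed as inactive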
NPYLR7 agonist max-min = also measured in NPYLR7 agonist; calls as there; activation, %; measured here: Max-Min RFU normalised activation; some inactives read as strong as hits;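 span of the calcium signal over five minutes; 0% = vehicle and 100% = native peptide agonist; compound fluorescence can raise it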
Numbers without * were called inactive; & = joins results of further samples. A portion of the library, so the mix of outcomes need not match the whole.

SMILES	NPYLR7 agonist	NPYLR7 agonist max-min
CCOc1ccc(C2CC(c3ccc(OC)cc3OC)=NN2C(=O)CN2CCN(c3ccccc3F)CC2)cc1 (centres undefined)	6	7
Cc1cccc(C(=O)N2CCN(c3ccc(C)cc3C)C(=O)C2C)c1 (centres undefined)	-14	-11
O=[N+]([O-])c1c(C(Cl)Cl)nc(-c2ccccc2)nc1-n1nnc2ccccc21	-4	-11
CCc1[nH]n(-c2ccccc2)c(=O)c1C1=C([n+]2cc(C)cc(C)c2)C(=O)N(CC2CCCO2)C1=O (centres undefined)	17	21
CCN1C(=O)NC(c2ccc([N+](=O)[O-])cc2)C(C(=O)OC(C)C)=C1C (centres undefined)	-4	-10
Cc1cccc2nc(CSc3nnc(-c4cccs4)n3C3CC3)cc(=O)n12	-1	21
COc1ccc(OCCCn2cnc3ccccc32)cc1	-6	10
Cc1ncc(CN2CCc3c([nH]c4ccccc34)C2c2ccc(F)cc2)s1 (centres undefined)	9	0
CN(C)CCCNc1nc2cc(-c3cccc(Cl)c3)sc2c(=O)n1C	5	1
COCCNc1nc(NCc2ccc(NC(C)=O)cc2)c2sc(-c3ccccc3)cc2n1	6	1
O=C(CN(CC1CCCO1)C(=O)c1ccc([N+](=O)[O-])cc1)N(Cc1ccccc1)Cc1ccco1 (centres undefined)	-5	-2
CCCc1ncncc1C(=O)N1C[C@@H]2C3CCC(CC3)[C@@H]2C1	26	8
CC(C)Cc1cc(-c2ccccc2)c(C#N)c(N)n1	-2	-3
Cc1c(NC(=O)CC2CCc3ccccc3C2)cccc1C(N)=O (centres undefined)	5	4
CN(C)CCCOc1ccc(-c2nnc3ccc(-c4cccc(Oc5ccccc5)c4)cn23)cc1	8	-4

The final 4 records of the section above open the next one:
SMILES	NPYLR7 agonist	NPYLR7 agonist max-min
CCCc1ncncc1C(=O)N1C[C@@H]2C3CCC(CC3)[C@@H]2C1	26	8
CC(C)Cc1cc(-c2ccccc2)c(C#N)c(N)n1	-2	-3
Cc1c(NC(=O)CC2CCc3ccccc3C2)cccc1C(N)=O (centres undefined)	5	4
CN(C)CCCOc1ccc(-c2nnc3ccc(-c4cccc(Oc5ccccc5)c4)cn23)cc1	8	-4
Cc1cccc(-n2c(SCc3nc(C(=O)NCc4ccc(F)cc4)cs3)nnc2-c2cccs2)c1	2	4
CNS(=O)(=O)Cc1ccccc1CNS(=O)(=O)c1cc(Cl)cc(Cl)c1	6	3
Cc1ccc(-c2nnc3c4cnn(C)c4ncn23)cc1	14	4
CO/N=C(\C(=O)O)c1csc(NN=C(C)C)n1	1	1
CNC(=O)c1ccc(CN(Cc2ccco2)S(=O)(=O)N2CCCC(C)C2)cc1 (centres undefined)	5	3
CC(NC(=O)C(C)N(C)Cc1ccc2ccccc2c1)c1ccc(F)cc1 (centres undefined)	2	5
COc1ccccc1-c1cn2c(C(=O)NC[C@H]3CCc4ccccc4O3)csc2n1	5	4
Cc1c(C(=O)N2CCCC2)oc2c1-c1nn(CC(=O)N3CCCC3)cc1CC2	-1	-3
COCC(=O)Nc1ccc(N(C)C)c(CN(CCN(C)C)C(=O)c2ccc(F)cc2)c1	12	27
O=C(c1cc(F)ccc1F)N1CCc2ccccc2C1c1ccc(F)cc1 (centres undefined)	-3	0
Cc1cc(=O)[nH]c(-n2nc(C)cc2NC(=O)c2ccc(-c3ccccc3)cc2)n1	1	-1
Cc1[nH]nc(SCC(=O)N2CCCC2)c1[N+](=O)[O-]	-9	-9
O=C(NCc1cnc(-c2ccccc2)s1)c1cn(CC2CCCO2)nn1 (centres undefined)	19	8
COc1ncccc1C(=O)N1CCCC(CCC(=O)N2CCOCC2)C1 (centres undefined)	2	2
COc1cccc(-c2csc3nc(CN(CC(O)COCC(C)C)C4CCCCC4)[nH]c(=O)c23)c1 (centres undefined)	6	2
COCCOC(=O)C1=C(C)N(C)C(=O)N(C)C1c1cccc([N+](=O)[O-])c1 (centres undefined)	-3	-3
COCc1nc(N(C)Cc2cccc3ncccc23)c2cnn(C)c2n1	3	2
Cc1noc(-c2ccncc2)c1C(=O)NCc1cccc(Cl)c1	-1	2
COc1ccc(CCCN(C)S(=O)(=O)c2ccc([N+](=O)[O-])cc2)cc1OC	8	7
CC1(C(=O)Nc2ccc3c(c2)OCO3)CCN1C(=O)Cc1cccs1 (centres undefined)	-1	1
CCN(CC)C(=O)Cn1cc(C(=O)NCCCN2CCCc3ccccc32)nn1	7	8
CC(OC(=O)Cn1c(=O)oc2ccccc21)C(=O)N1CCNC1=O (centres undefined)	7	5
CCOC(=O)c1cccnc1-c1ccc(OC)nc1	28	17
O=C(Nc1ccc(Cl)cc1Cl)N1CCN(c2nc(-c3ccccc3)nc3cc(Cl)ccc23)CC1	10	10
O=C(N[C@@H]1CC[C@H]2C[C@@H]1[C@@H](O)CO2)C1CCC1	3	13
CCCNc1cc(C)nc2c(-c3ccc(C)cc3)c(C)nn12	-8	-10
CC(C)SC(NC(=O)OCc1ccccc1)C(=O)NCCc1ccc(O)cc1 (centres undefined)	-5	-9
CCC1=NOC(C(=O)NCc2ccccc2-n2ccnc2C)C1 (centres undefined)	10	5
COc1ccccc1/C=C/CN1CCCC(CNC(=O)c2ccc(F)cc2)C1 (centres undefined)	5	4
O=C(Nc1ccccc1)N1CCC(n2cc(CN3CCC[C@@H]3CO)nn2)CC1	20	9
Cc1[nH]nc(Nc2ccc(Cl)c(Cl)c2)c1[N+](=O)[O-]	2	2
CC1(C(=O)NS(=O)(=O)c2ccccc2)CCN1C(=O)c1ccccc1 (centres undefined)	-1	-3
CCN(CC1CCCN(CCc2cccc(F)c2)C1)C(=O)c1ccc(C(=O)OC)cc1 (centres undefined)	14	4
Cc1nn(C2CCS(=O)(=O)C2)c(C)c1C1NC(=O)c2ccccc2N1 (centres undefined)	15	8
CC1CCCC(C)N1C(=N)N (centres undefined)	4	9
CN(CC(=O)NC1(c2ccc(Br)cc2)CC1)c1ccc(Cl)cn1	10	4
C=CCN1C(=O)/C(=C2\SC(=S)N(C(C)C)C2=O)c2ccccc21	-7	-13
C=CCn1c(=NC(=O)c2ccc(N3C(=O)CCC3=O)cc2)sc2cc(C)ccc21	2	1
CC(=O)Nc1cccc(-c2cncc(C(=O)N3CCOCC3)n2)c1	1	-1
COc1ccc(-n2c(=O)[nH]cc(C(=O)Nc3ccccc3C(F)(F)F)c2=O)cc1	5	3
O=C(CSc1nc(CC(=O)NCc2cccs2)cc(=O)[nH]1)NCc1ccco1	-19	-23
Clc1ccc2nc(C34CC5CC(CC(C5)C3)C4)cn2c1	12	11
COCc1nc(C)nc(N2CCN(C(=O)c3cccs3)CC2)c1Cc1cccc(Cl)c1	-3	2
O=C(NCc1ccc(S(=O)(=O)N2CCCCC2)s1)c1cc(Cl)cc(Cl)c1	-4	-4
c1nc(NCCCN2CCOCC2)c2cn[nH]c2n1	11	8

2 records picked at random from those above, as already listed:
SMILES	NPYLR7 agonist	NPYLR7 agonist max-min
C=CCN1C(=O)/C(=C2\SC(=S)N(C(C)C)C2=O)c2ccccc21	-7	-13
Cc1nn(C2CCS(=O)(=O)C2)c(C)c1C1NC(=O)c2ccccc2N1 (centres undefined)	15	8

(list continues)
SMILES	NPYLR7 agonist	NPYLR7 agonist max-min
Cc1occc1C(=O)NN=CC(Cl)=Cc1ccccc1	2	-6
CCOC(=O)CCC(=O)Nc1ccc(-n2nc(OCCOC)nc2-c2ccc(C(F)(F)F)cc2)cc1	-1	-8
COc1cc(OC)cc(-n2c(CCC(=O)NCc3cc(F)ccc3F)cc3c2-c2ccccc2CC3)c1	23	13
CC(=O)NCCNC(=O)C1(C)CCN1Cc1ccc2c(c1)OCCO2 (centres undefined)	10	0
Cc1ccc(S(=O)(=O)N2CCN(C(=O)C(C)C)CC2)cc1	-16	-16
CCOC(=O)CC1COCCN1Cc1nc(-c2cc3c(cc2Cl)OCO3)oc1C (centres undefined)	5&0	4&-1
O=c1c(N=Nc2ccccc2[N+](=O)[O-])c(-c2ccc([N+](=O)[O-])cc2)[nH]n1-c1nc(-c2ccccc2)cs1	12	15
CSc1nnc2ccc(-c3cccc([N+](=O)[O-])c3)nn12	-11	-3
COCCN[C@H]1[C@@H]2OC[C@@H](O2)[C@@H](NC(=O)Nc2cccc(C#N)c2)[C@@H]1O	-7	-17
S=c1[nH]nc(-c2cc(-c3ccccc3)nc3ccccc23)n1-c1ccc(Cl)cc1	-2	-6
COc1ccccc1-n1c(-c2ccc(Cl)cc2)cc(C(=O)N2CCN(C(=O)C(Cl)Cl)CC2)c1C	20	26
Cn1cc(C(=O)O)c(-c2ccc3c(c2)OCCCO3)n1	-6	-6
CCc1cccc(Oc2cc(C)nc(SCc3c(F)cccc3F)n2)c1	16	18
Cc1cc(C)cc(-c2nc3cc(C)ccn3c2NC(=O)Cc2ccc(F)cc2)c1	-7	-2
Cc1cc2nc(CN3CC(=O)N4CC[C@@H](O)C[C@H]4C3=O)[nH]c2cc1C	25	13

Rewritten with values under each structure: part of the list above.
Every second line gives: NPYLR7 agonist, NPYLR7 agonist max-min
> COc1ccc(OCCCn2cnc3ccccc32)cc1
→ -6, 10
> Cc1ncc(CN2CCc3c([nH]c4ccccc34)C2c2ccc(F)cc2)s1 (centres undefined)
→ 9, 0
> CN(C)CCCNc1nc2cc(-c3cccc(Cl)c3)sc2c(=O)n1C
→ 5, 1
> COCCNc1nc(NCc2ccc(NC(C)=O)cc2)c2sc(-c3ccccc3)cc2n1
→ 6, 1

Carrying on.
SMILES	NPYLR7 agonist	NPYLR7 agonist max-min
COc1ccc(C2NC(=O)NC3=C2C(=O)N(CCCOC(C)C)C3)cc1 (centres undefined)	3	-1
CCn1c(CC2CCN(C(=O)C3CCCCn4nnnc43)CC2)n[nH]c1=O (centres undefined)	25	16
COc1ccc2cc(C3CN(CCc4ccccn4)CCO3)ccc2c1 (centres undefined)	1	-3
COc1ccc2nc(N(Cc3ccccc3)C(=O)CS(=O)(=O)c3ccc(C)cc3)sc2c1	-2	-8
COc1cccc(CN2CCC(C(=O)NC(c3cccc(OC)c3)c3ccccn3)CC2)c1 (centres undefined)	0	-5
CCCOc1ccc(-c2cccc(NS(=O)(=O)c3ccc(CC)cc3)c2)nn1	-3	-4
Oc1ccc(C=NCC(F)(F)C(F)(F)C(F)(F)C(F)F)cc1	-10	-13
O=C(c1csc(-c2cc3ccccc3[nH]2)n1)N1CCCC1	-3	-3
CCOC(=O)C1CCN(C(=O)c2cc(-c3ccccc3OC)n3nc(-c4ccccc4)cc3n2)CC1	17	30
O=C(c1cccc(F)c1)N(Cc1ccccc1Cl)CC1CC(c2ccc(Cl)cc2)=NO1 (centres undefined)	30	29
Cc1ccc(C)c(S(=O)(=O)NC2CCN(C(=O)C3CC3)CC2)c1	4	4
CCC(C)N(CC#Cc1ccccc1)Cc1nc[nH]c1C (centres undefined)	6	2
CCCN(C1=NC2CS(=O)(=O)CC2S1)c1ccc(OCC)cc1 (centres undefined)	8	9
Clc1ccc2nc(CSc3ncnc4sc5c(c34)CCC5)cn2c1	5	5
COc1ccc(-c2ccc(CCC(=O)O)n2NC(N)=O)cc1	-8	-16
CN(Cc1ccccc1Br)C(=O)Cn1nc(-c2ccc(F)cc2)oc1=O	-5	-7
CSc1nnc(C(C)(C)C)c(=O)n1N=Cc1ccccc1I	-4	-10
c1c(CN2CCC(c3nnc4n3CCCCC4)CC2)nn2c1CNCC2	20	14
CCOC(=O)c1cc(C(C)(C)C)n(C2CCN(C(=O)C(CC)c3ccccc3)CC2)n1 (centres undefined)	-3	-5

Compound activity from PubChem.
